# High-throughput results as filed in PubChem.
# FGF22 binding: shifts melting point of recombinant human FGF22; Q9HCT0; hit rate 1.5% among 340,000; calls only at 9.99 µM; recombinant FGF22 thermal shift, SYPRO orange fluorescence; percent of sucrose octasulfate shift, DMSO zero;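 active = melting point raised past a set limit in the mean and every replicate; three in four hits are not shown here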
# Target sequence (Q9HCT0 whole entry, looked up): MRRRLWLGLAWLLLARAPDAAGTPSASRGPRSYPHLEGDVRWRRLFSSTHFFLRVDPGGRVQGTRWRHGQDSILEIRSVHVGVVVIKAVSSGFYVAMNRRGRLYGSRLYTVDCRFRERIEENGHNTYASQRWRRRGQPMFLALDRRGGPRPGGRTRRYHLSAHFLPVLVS
# E coli growth: blocks Escherichia coli growth; hit rate 0.21% among 330,000; AID 1053175; OD600, 23 h; hits give low values; OD600 absorbance (no concentration beside the values);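 active = OD600 absorbance below the run mean of sample wells minus 3.6 SD, in any replicate, cut at about 0.56 in these data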;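 also: stock transfer was 300 nL into about 60 µL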
# MLL AF4-AF9 inh: blocks AF4 peptide binding to human AF9; AlphaScreen, biotin-AF4 peptide binding to FLAG-AF9; hit rate 0.47% among 350,000; inhibition, % at 10 µM;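 active = every replicate reaching a set inhibition limit, whatever the replicate mean, cut at about 25% in these data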;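 also: 0% = plate neutral control median and 100% = total signal loss; the record names both 10 and 1 µM as test concentration; the first replicate is given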
# Target sequence (P42568 whole entry, looked up): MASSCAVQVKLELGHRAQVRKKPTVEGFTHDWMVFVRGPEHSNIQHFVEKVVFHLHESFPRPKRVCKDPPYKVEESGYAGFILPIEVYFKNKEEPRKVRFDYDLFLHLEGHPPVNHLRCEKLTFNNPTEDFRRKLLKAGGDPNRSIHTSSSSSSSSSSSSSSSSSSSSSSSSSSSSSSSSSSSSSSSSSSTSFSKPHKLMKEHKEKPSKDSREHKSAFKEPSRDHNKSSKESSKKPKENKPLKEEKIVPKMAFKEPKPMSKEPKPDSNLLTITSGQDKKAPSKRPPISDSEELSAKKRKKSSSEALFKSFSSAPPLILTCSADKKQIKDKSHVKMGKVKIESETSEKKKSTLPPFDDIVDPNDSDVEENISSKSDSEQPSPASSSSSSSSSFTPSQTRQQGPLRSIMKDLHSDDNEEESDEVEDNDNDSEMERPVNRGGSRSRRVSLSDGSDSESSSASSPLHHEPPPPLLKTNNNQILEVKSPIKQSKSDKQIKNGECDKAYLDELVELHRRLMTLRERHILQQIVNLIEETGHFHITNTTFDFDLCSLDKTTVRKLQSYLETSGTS
# ALR inh: inhibitors of human sulfhydryl oxidase ALR; purified ALR, DTT oxidation, H2O2 HRP-luminol luminescence; inhibition, % (concentration not given with the values); hit rate 3.8% among 290,000; AID 485317;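 active = mean and each replicate at 75% or more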;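 also: stock transfer was 7.5 nL into about 7.5 µL; 0% = neutral wells and 100% = wells with inactivated enzyme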
# Target sequence (P55789 whole entry, looked up): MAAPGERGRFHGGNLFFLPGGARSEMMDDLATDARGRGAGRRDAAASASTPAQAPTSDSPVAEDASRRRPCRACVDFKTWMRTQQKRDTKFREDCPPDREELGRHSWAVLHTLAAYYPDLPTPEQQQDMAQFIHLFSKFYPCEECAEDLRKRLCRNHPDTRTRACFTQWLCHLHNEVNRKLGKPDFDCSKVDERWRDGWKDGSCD
# rRNA inh HTS: selective bacterial rRNA inhibition in E. coli | hit rate 1.6% among 350,000 | GFP signal change (wild-type ribosome), % (no concentration beside the values) | E. coli WT GFP vs humanized-ribosome RFP mutants, fluorescence, 24 h; hits give low values; DMSO median 0, no signal -100;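 active = significant combined selectivity score with lowered wild-type GFP, culture density cut under 30%, mutant RFP and density less affected; inactive = any of these conditions unmet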; also: one replicate is shown; some compounds called inactive have numbers as strong as hits
# HNF4A DNA FP: change in binding of human HNF4 alpha to DNA. hit rate 0.3% among 360,000. activity change, % at 10 µM. HNF4a-FITC DNA binding, fluorescence polarization, 1 h. P41235. AID 1224865; in the data active = activity change above about 30%, passing the limit was not always enough;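 also: controls were the assay level and a saturating level of protein; the project sought stronger binding though the title names inhibitors; some compounds called inactive have numbers as strong as hits; positive values seem to mean higher polarization but the record does not say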
# Vif TR-FRET: HIV-1 Vif–A3G interaction blockers – biochemical, TR-FRET, GST-Vif 1-94, biotin-A3G peptide, dose response retest, primary screen (AID 1117319) | TR-FRET GST-Vif / biotin-A3G peptide binding; higher % means a stronger effect; test concentration not given here; strong numbers were not always called active | inhibition, %; hits with a dose series show IC50 in µM | hit rate 0.57% among 260,000;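 active = above the screen mean plus three standard deviations and confirmed in dose response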;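 also: Vif residues 1-94 fused to GST binding biotinylated APOBEC3G peptide 110-148; 0% = full assay without inhibitor and 100% = GST in place of GST-Vif; retest series ran down from 100 µM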
# rRNA inh HTS OD600: second read-out of rRNA inh HTS, no call of its own (marks repeat the call); OD600 change, %; measured here: OD600 growth;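 optical density of the mix in the first replicate; 0 = DMSO median and -100 = no signal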
# rRNA inh HTS RFP: further read-out of rRNA inh HTS, marked with its call; RFP signal change, %; measured here: RFP humanized mutant strains;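 first replicate; 0 = DMSO median and -100 = no signal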
# * marks the source's active call; other numbers are inactive results; i = inactive; x = not tested or not shown; + = active, no number.
Structure,FGF22 binding,E coli growth,MLL AF4-AF9 inh,ALR inh,rRNA inh HTS,rRNA inh HTS OD600,rRNA inh HTS RFP,HNF4A DNA FP,Vif TR-FRET
CN(C(=O)c1ccc2c(c1)OCO2)C1(C(=O)NC2CCCC2)CCCCC1,x,0.72,x,-2,x,x,x,2.9,-1%
COc1cc(C(=O)Nc2nnc(C3=COCCO3)o2)cc(OC)c1OC,i,0.75,-2.1,-3,4,3,0.9,2.1,2%
O=C(c1ccccc1)C1CCN(C(=O)c2cccs2)CC1,i,0.65,-4.2,x,-13,-17,-1.0,-0.3,x
CC[C@]12c3[nH]c4cc(CCC(=O)N(C)C)ccc4c3CCN1C(=O)[C@@H](CC(=O)NCc1ccco1)C[C@@H]2C(=O)N1CCN(C(=O)c2ccco2)CC1,i,0.69,-1.8,x,10,7,-1.6,4.3,3%
C/C=C/c1ccc([C@@H]2[C@@H](CO)N(C(C)=O)[C@H]2CN(C)C(=O)c2ccccn2)cc1,i,x,-0.6,x,-2,3,0.4,x,x
COCCn1c(SCC(=O)NCc2ccccc2)nnc1-c1ccco1,x,0.71,x,x,x,x,x,-0.9,5%
O=C(CNC(=O)c1ccc2c(c1)OCCO2)N/N=C/c1ccc(Cl)cc1,x,x,-9.5,-9,-2,6,-1.9,3.6,4%
COCC(=O)N(C)C[C@H]1Oc2ncc(-c3ccc(C)cc3)cc2C(=O)N([C@H](C)CO)C[C@H]1C,i,x,-2.4,x,1,1,-1.6,x,x
COc1cccc(C(=O)OCCN2CCOCC2)c1,i,0.68,-0.9,-3,17,15,5.8,0.5,x
O=C(Nc1cccc(Oc2ccccc2)c1)C1Cc2c(-c3ccccc3)ccnc2O1 (centres undefined),i,x,-0.5,x,-4,0,-1.4,1.5,x
COc1cc(S(=O)(=O)N2CCN(C(=O)c3cccs3)CC2)ccc1NC(C)=O,i,x,-3.5,x,15,15,-1.1,2.3,1%
O=C(O)CC(CC(=O)Nc1ccc(C(=O)O)cc1)c1ccccc1 (centres undefined),i,0.69,1.8,-4,12,4,-0.8,0.1,0%
COc1ccc2ccc(O)c(CN3CCN(S(=O)(=O)c4cc([N+](=O)[O-])ccc4C)CC3)c2c1,i,0.64,3.7,-7,-12,8,-1.9,-1.9,-2%
CCC(=O)Nc1ccc2nc(SCC(=O)N3CCOCC3)sc2c1,i,0.68,-5.9,-22,-3,7,-0.6,-4.4,-3%
O=C(Nc1ccc2c(c1)[C@H]1C[C@H](CC(=O)N3CCc4ccccc4C3)O[C@H](CO)[C@H]1O2)C1CCC1,i,x,1.7,x,-7,-19,0.3,x,x
CC1Sc2ccc(S(=O)(=O)CCC(=O)N(C)Cc3ccco3)cc2NC1=O (centres undefined),i,0.7,-1.7,-3,-1,0,-0.3,-0.5,x
COc1ccc(NC(=O)C2CCCNC2=O)cc1 (centres undefined),i,0.65,0.1,-16,9,8,0.2,1.7,-6%
O=C(NCCCN1CCCC1=O)C(=O)NCC1OCCN1S(=O)(=O)c1ccc(Br)cc1 (centres undefined),i,0.63,-2.3,-27,12,4,-3.2,1.6,0%
CO[C@@H]1CN(C)C(=O)c2ccc(NC(=O)NC(C)C)cc2OC[C@H](C)N(CCC(F)(F)F)C[C@H]1C,i,x,1.6,x,-6,-9,-0.1,x,x
Cc1cccc(COCC(Cc2ccccc2)N2CCN(C(=O)c3ccc(C(F)(F)F)cc3)CCC2=O)c1 (centres undefined),x,0.71,x,-2,x,x,x,2.7,x
Cc1ccc(C(=O)N/C(=C\c2cccs2)C(=O)NCc2ccncc2)cc1,x,0.71,x,-5,x,x,x,2.6,0%
Cn1c(Cl)c(/C=N/OC(=O)c2ccc(Cl)cc2)c2ccccc21,x,x,x,-11,x,x,x,4.3,-1%
Cc1ccccc1CN(c1ccc(C(=O)N2CCN(C)CC2)cc1)S(C)(=O)=O,i,0.61,0.5,1,14,2,0.4,1.8,x
O=C(CCc1ccccn1)N1CCCC(N2CCN(c3ccc(F)cc3)CC2)C1 (centres undefined),i,0.69,1.3,x,3,8,-0.9,-3.9,x
CCC(C)(C)n1nnnc1C(c1ccc(O)cc1)N1CCc2ccccc2C1 (centres undefined),i,0.68,13,1,4,-6,-0.4,4.6,2%
COc1ccc(OCCN2C(=O)c3ccccc3C2=O)c([N+](=O)[O-])c1,i,0.7,1.1,-31,4,-11,-2.4,-0.1,x
Cc1cc(F)ccc1N1CCC(N2CCN(CCC(C)C)C(CCO)C2)CC1 (centres undefined),i,0.71,0.8,10,-17,-17,-1.4,1.7,x
CO/N=C/NC(=O)c1c(OC)ccnc1Oc1ccc(Cl)cc1,x,0.68,x,-28,x,x,x,2.1,-4%
CCCOc1ccc(Cn2c(O)cc(=O)[nH]c2=O)cc1,x,0.72,x,3,x,x,x,13,7%
COc1ccc(CNC(=O)c2c(O)c3cc(OC)c(OC)cc3[nH]c2=O)cc1OC,i,0.67,-3.3,6,14,13,-1.3,1.8,x

# Complete entries, looked up by structure. Screens in order: FGF22 binding	E coli growth	MLL AF4-AF9 inh	ALR inh	rRNA inh HTS	rRNA inh HTS OD600	rRNA inh HTS RFP	HNF4A DNA FP	Vif TR-FRET
# Cn1c(Cl)c(/C=N/OC(=O)c2ccc(Cl)cc2)c2ccccc21 is entered as x	x	x	-11	x	x	x	4.3	-1%
# O=C(NCCCN1CCCC1=O)C(=O)NCC1OCCN1S(=O)(=O)c1ccc(Br)cc1 (centres undefined) is entered as i	0.63	-2.3	-27	12	4	-3.2	1.6	0%
# COc1ccc(CNC(=O)c2c(O)c3cc(OC)c(OC)cc3[nH]c2=O)cc1OC is entered as i	0.67	-3.3	6	14	13	-1.3	1.8	x
# Cc1cc(F)ccc1N1CCC(N2CCN(CCC(C)C)C(CCO)C2)CC1 (centres undefined) is entered as i	0.71	0.8	10	-17	-17	-1.4	1.7	x
# COc1ccc(OCCN2C(=O)c3ccccc3C2=O)c([N+](=O)[O-])c1 is entered as i	0.7	1.1	-31	4	-11	-2.4	-0.1	x

# The list goes on:
Structure,FGF22 binding,E coli growth,MLL AF4-AF9 inh,ALR inh,rRNA inh HTS,rRNA inh HTS OD600,rRNA inh HTS RFP,HNF4A DNA FP,Vif TR-FRET
CCCn1nnc(NC(=S)NC(=O)c2ccc(-c3ccc(Br)cc3)o2)n1,i,0.65,0.5,-1,-8,-10,3.6,-6.2,-14%
N#CC1=C(N)OC2=C(C(=O)CC(c3ccccc3)C2)C1c1cccnc1 (centres undefined),x,0.71,x,30,x,x,x,0.6,1%
CCOC(=O)C1(CCc2ccccc2)CCN(C(=O)c2ccoc2)CC1,i,0.66,-11,1,-32,-29,-5.3,0.3,4%
Cc1ccccc1NC(=O)CSc1nnnn1C,x,0.72,x,0,x,x,x,-0.8,-5%
CCC(C)NC(=O)Cn1ccc2cc(S(=O)(=O)N3CCCCCC3)ccc21 (centres undefined),i,0.65,1.0,3,4,-10,-0.4,0.6,x
COC(=O)C[C@@H]1C=C[C@H](NS(=O)(=O)c2ccc(OC)cc2)[C@@H](CO)O1,i,x,0.2,x,-2,2,0.0,x,x
N#CCSc1nccc(-c2cc(Cl)sc2Cl)n1,x,0.74,x,-7,x,x,x,-2.0,-10%
COc1ccc(OC)c(NC(=O)C2(C)CCN2C(=O)CC2CC2)c1 (centres undefined),i,x,-0.9,x,11,11,2.7,-0.6,x
N=c1c2c3c(sc2ncn1CCCO)CCCC3,x,0.76,x,x,x,x,x,3.5,1%
CCc1cc(C(=O)c2ccc(OC)cc2)c(NC(=O)CN2CCCC2)s1,i,0.66,17,0,-4,2,43,-2.8,x
Cc1cc(C)cc(OCC(=O)NN2C(=O)c3ccccc3C2=O)c1,i,0.7,-1.2,1,5,2,-1.0,2.8,2%
CO[C@@H]1CN(C)C(=O)c2ccc(NS(C)(=O)=O)cc2OC[C@@H](C)N(C(=O)C2CCC2)C[C@@H]1C,i,x,-3.3,x,0,4,-0.3,x,x
Cc1ccc2[nH]c3c(=O)n(CC(=O)N4CCN(C)CC4)ncc3c2c1,i,0.7,0.7,-2,5,10,-0.3,2.0,x
COc1ccccc1N1C(=O)C2C(C(=O)c3ccccc3)=NN(c3ccccc3)C2C1=O (centres undefined),i,0.64,-3.9,4,32,6,5.4,-3.3,4%
Nc1nncn1C(=O)c1cc(Br)ccc1Cl,x,0.62,x,x,x,x,x,-3.4,1%
Cc1cc(NC(=O)CN(C)CC(=O)Nc2ccc(F)c(F)c2F)no1,i,0.66,3.3,x,2,6,-1.4,-0.8,3%
CCCn1c(=O)c2ccccc2n2c(SCC(N)=O)nnc12,i,0.7,-1.4,-2,15,4,6.2,3.1,x
O=C1CS/C(=N\C(=O)N2c3ccccc3Sc3ccccc32)N1,x,0.72,x,99*,x,x,x,8.4,7%
C[C@@H]1CN([C@@H](C)CO)C(=O)c2cc(NC(=O)Nc3ccc(F)cc3)ccc2O[C@@H]1CN(C)Cc1ccncc1,i,x,0.3,x,-1,-8,0.5,x,x
O=C(NN1CCOCC1)c1cc(S(=O)(=O)Nc2cccc(C(F)(F)F)c2)ccc1Cl,i,0.74,-3.6,-1,-1,-5,-1.7,-1.9,15%
COc1ccc2c3c([nH]c2c1)[C@@H](CO)N(C(=O)c1ccncc1)CC31CN(C(=O)c2ccncc2)C1,i,x,-3.2,x,2,8,-3.9,x,x
CCN(C(=O)COc1cccnc1[N+](=O)[O-])C1CCS(=O)(=O)C1 (centres undefined),i,0.69,-7.1,x,x,x,x,-1.1,4%
O=C(C[C@H]1C[C@@H]2c3cc(NC(=O)Nc4ccc(C(F)(F)F)cc4)ccc3O[C@@H]2[C@@H](CO)O1)NCC1CC1,+,x,7.8,x,-56,-76,-14,x,x
C[C@@H]1CN([C@H](C)CO)C(=O)c2cc(NC(=O)CCC(F)(F)F)ccc2O[C@@H](C)CCCCO[C@H]1CN(C)C(=O)Nc1ccc(F)cc1,i,x,-1.4,x,-1,2,-0.3,x,x
CO[C@H](CN(C)C(=O)c1ccccc1F)[C@@H](C)CN([C@@H](C)CO)S(=O)(=O)c1ccc(F)cc1,i,x,-0.3,x,-1,-2,0.7,x,x
C[C@H]1CCCCO[C@@H](CN(C)Cc2ccc(C(F)(F)F)cc2)[C@@H](C)CN([C@@H](C)CO)C(=O)c2cc(NC(=O)CCCN(C)C)ccc2O1,i,x,11,x,2,-4,4.8,x,x
CCCNC(=O)N1[C@@H](C#N)[C@@H](c2ccc(C#Cc3cccc(F)c3)cc2)[C@@H]1CO,i,x,-4.3,x,-54,-72,-11,x,x
CC(C)Oc1cccc(C(=O)C2CCCN(C(=O)c3ccccn3)C2)c1 (centres undefined),i,0.66,-2.0,1,-3,5,2.1,-1.1,x
COc1ccc(N=C2C(=S)N(c3ccc(OC)cc3)C(=NS(=O)(=O)c3ccccc3)N2c2ccccc2)cc1,i,x,1.1,x,-4,4,-4.1,-1.2,1%
Cc1[nH]nc2nc(SCC(=O)NC3CCCCC3)n(-c3ccc(Br)cc3)c(=N)c12,i,x,-3.0,-10,15,16,3.2,-1.8,x
CO[C@H]1CN(C)C(=O)c2ccc(NC(=O)c3ccc(F)cc3)cc2OC[C@H](C)N(C(=O)c2ccc(F)cc2)C[C@@H]1C,i,x,-0.9,x,-12,-5,2.9,x,x
COc1cccc(NS(=O)(=O)c2ccc3[nH]cc(C(=O)NC4CC4)c(=O)c3c2)c1,x,0.74,x,x,x,x,x,1.1,9%

# These rows are one share of the data, so the mix of outcomes need not match the whole.
